GIV Gai3 FP: blocks GIV peptide binding to rat Galpha-i3 | P08753 | 210,000 tested, 0.42% active | Galpha-i3/FITC-GIV peptide fluorescence polarization, 90 min; stronger effect = lower value; scaled: aluminum fluoride 0%, vehicle 100% | AID 1224905 | percent of control (FP), % (concentration not given with the values);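 active means replicate mean at 85% of control or lower, very high polarization wells dropped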;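 further: wells of about 15 µL received 100 nL stock; the first replicate is given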
Target sequence (P08753 whole entry, looked up): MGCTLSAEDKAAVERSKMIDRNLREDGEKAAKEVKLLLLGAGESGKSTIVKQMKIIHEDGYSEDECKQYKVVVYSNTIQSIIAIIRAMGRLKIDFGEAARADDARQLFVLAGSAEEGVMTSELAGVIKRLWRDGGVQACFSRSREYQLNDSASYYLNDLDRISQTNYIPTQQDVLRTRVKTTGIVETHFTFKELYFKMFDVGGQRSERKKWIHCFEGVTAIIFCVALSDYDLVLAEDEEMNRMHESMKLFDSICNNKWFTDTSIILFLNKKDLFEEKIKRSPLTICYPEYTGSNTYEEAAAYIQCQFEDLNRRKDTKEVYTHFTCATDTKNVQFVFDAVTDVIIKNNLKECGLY
HCMV UL50-53 inh: cytomegalovirus nuclear egress complex inhibition; inhibition, % (concentration not given with the values); HTRF UL50-UL53 interaction, normalized percent inhibition; 190,000 tested, 0.15% active;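 active means both replicates at 50% or more, plus weaker picks with an unusually low signal ratio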;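 further: stock transfer was 100 nL into about 20 µL; 0% = negative control wells and 100% = wells with untagged competitor protein; inactives centre near -12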
Sa growth 42C: inhibitors of Staphylococcus aureus growth at 42 °C | S. aureus RN4220 growth, OD600, 20 h; stronger effect = lower value | relative growth, % (no concentration beside the values) | 170,000 tested, 0.53% active | AID 720641;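 active means growth at 42 °C up to 50% and 20 or more points under that at 30 °C, or under 10% at both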;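 further: 300 nL library stock went into each well; scaled to the means of positive and negative controls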
Sa growth 42C second temp: further read-out of Sa growth 42C, marked with its call; relative growth, %; measured here: growth at 30 °C;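 optical density after 20 h as mean of two plates; 100% = untreated growth and lower means inhibition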
An asterisk follows results filed as active; · = no result given; & = joins results of further samples. An unsorted share of the library, and some 0.82% of all compounds hit somewhere here.

SMILES	GIV Gai3 FP	HCMV UL50-53 inh	Sa growth 42C	Sa growth 42C second temp
CCOc1ccc(NC(=O)CN2CCN(CC(=O)Nc3ccc(OCC)cc3)CC2)cc1	103	-32	94	87
O=C(Nc1ccccc1-c1nc2ccccc2s1)c1cc(Cl)cc(Cl)c1	103	·	102	93
Cc1cc2ncc(-c3ccnc(SCCS(=O)(=O)c4ccccc4)n3)c(C)n2n1	99	-37	89	88
O=C(Nc1ccccc1)c1ccc(S(=O)(=O)N2CCCC2)cc1	105	-6	113	103
O=C1CC(c2ccccc2)CN1C(=O)c1cccnc1 (centres undefined)	100	·	120	91
CC(C)Cc1ccc(C(C)c2nc3ccccc3n2C)cc1 (centres undefined)	100	·	81	84
CCCn1cnc2c(cnn2-c2ccccc2C)c1=O	109	-9	104	95
S=c1n(CN2CCCCC2)nc(-c2ccccc2)n1-c1ccccc1	·	-27	78	106
CC(NS(=O)(=O)c1ccc2[nH]c(=O)c(=O)[nH]c2c1)C(=O)O (centres undefined)	96	-9	·	·
Cc1ccccc1CSc1nc(=O)n(Cc2ccccc2)c2c1CCC2	105	-3	·	·
COc1cc2c(cc1OC)C(C(=O)NC1CCCCCC1)C(c1cccs1)N(C)C2=O (centres undefined)	104	·	97	84
Cc1ccc(C)c(NC(=O)Cn2c(=O)n(Cc3ccco3)c(=O)c3ccc(C(=O)NC4CCCC4)cc32)c1	107	-26	106	98
O=C(c1ccccc1-c1nc(-c2ccccc2)no1)N1CCCC1	98	6	·	·
C=CCn1c(=O)c(=O)n(Cc2ccc(C(=O)NCCc3ccccc3OC)cc2)c2ccccc21	101	-20	·	·
COc1ccc(C2CC(=O)N(C)C3=C2C(=O)CC(C)(C)C3)c(OC)c1 (centres undefined)	107	14	94	106
O=c1onc(-c2ccc(Cl)cc2)n1Cc1ccc(F)cc1	106	1	114	85
O=C(COCc1cc(-c2ccco2)on1)N1CCCC1	103	-49	108	91
Cc1ccc(NC(=O)CSc2nc3nc(C)c(Cc4ccccc4)c(C)n3n2)cc1	97	·	114	86
Cc1cc(C)cc(NC(=O)c2cc3c([nH]c2=O)CC(C)(C)CC3=O)c1	102	-16	·	·
Cc1ccc(Cn2c(=N)n(CC(=O)O)c3ccccc32)cc1	101	·	98	74
O=c1cc(NCc2ccccc2)[nH]nc1-c1ccccc1	93	-13	97	88
O=C(O)c1cc2cc3ccccc3nc2s1	101	-72	99	101
CCCNC(=O)Nc1cccc(-c2noc(-c3cnccn3)n2)c1	100	-71	·	·
COc1ccc(NC(=O)c2ccc(COc3ccccc3OC)o2)cc1OC	104	-20	97	90
COC(=O)c1sccc1NC(=O)N1CCCC1c1ccc(C)cc1 (centres undefined)	101	-26	·	·
Cc1c(CN(C)C)c2c(n1Cc1ccccc1)C(=O)c1ccc(Br)cc1-2	103	·	93	57
O=C(Nc1ccc(Br)cc1F)c1sc(=S)n2c1[nH]c(=O)c1cc(Cl)ccc12	106	15	·	·
CCN1CCN(C2=NC(C(=O)Nc3ccccc3)CC(=O)N2)CC1 (centres undefined)	101	8	109	94
CC(=O)Nc1cccc(NC(=O)N2CCOCC2)c1	·	-4	92	97
Cc1ccc(NC(=O)CN2C(=O)c3ccccc3Sc3ccc(C(=O)N4CCOCC4)cc32)c(Cl)c1	102	·	103	81
CC(O)(CN1CCOCC1)c1ccc(Br)cc1 (centres undefined)	·	-34	111	91
Cn1c(S(=O)(=O)Cc2ccc(Br)cc2)nc2ccccc21	107	7	95	112
N#Cc1c(N)nc2c(sc3nc4c(cc32)CCC4)c1-c1ccc(Br)cc1	·	3	105	82
CCOC(=O)CSC1=Nc2ccccc2C2=NC(CCC(=O)NCc3ccc(F)cc3)C(=O)N12 (centres undefined)	99	·	108	93
CCOc1ccc2c(c1)c(=O)c(S(=O)(=O)c1ccc(C)cc1)cn2CC(=O)Nc1ccc(C)cc1	108	10	104	71
Cc1ccc2c(c1)N(C(=O)CCC(=O)NCCc1ccc(S(N)(=O)=O)cc1)CCO2	99	-4	·	·
CN1CCN(C(=O)CCCCl)CC1	·	-27	105	87
COc1ccccc1C(=O)Nc1cc2c(cc1SC(C)C)n(C)c(=O)n2C	102	-27	·	·
CCOc1ccc(N(CC(=O)Nc2ccccc2C(=O)OC)S(=O)(=O)c2ccc(Cl)cc2)cc1	102	-4	·	·
CCc1ccccc1NC(=O)Cn1c(=O)n(-c2ccc(C)c(C)c2)c(=O)c2oc3ccccc3c21	101	·	114	86

Complete entries from above. Order of screens: GIV Gai3 FP	HCMV UL50-53 inh	Sa growth 42C	Sa growth 42C second temp
Results for CN1CCN(C(=O)CCCCl)CC1 : ·	-27	105	87
Results for CC(=O)Nc1cccc(NC(=O)N2CCOCC2)c1 : ·	-4	92	97

Additional entries:
SMILES	GIV Gai3 FP	HCMV UL50-53 inh	Sa growth 42C	Sa growth 42C second temp
CN(CCNc1nc(-c2ccccc2)no1)C1CCCCC1	99	-32	89	86
O=C(Cn1cnc2ccccc2c1=O)N1CCCc2ccccc21	·	7	97	92
Cc1ccc2cc(-c3noc(CCC(=O)Nc4nnc(CC(C)C)s4)n3)c(=O)[nH]c2c1	106	-40	·	·
O=C(c1ccc(-c2noc(C3CC3)n2)cc1)N1CCc2ccccc21	104	-37	·	·
O=C(O)c1ccc(N2CCOc3ccccc32)s1	104	-25	90	90
Nc1cccc2ncccc12	·	-46	110	93
Cc1nn(Cc2c(F)c(F)c(F)c(F)c2F)c(C)c1NC(=S)NCc1ccco1	100	-15	98	97
CC(=O)N(c1ccc2oc3c(c2c1)CCCC3)S(=O)(=O)c1ccc(F)cc1	104	-22	96	97
Cc1ccc(-c2ccc(OCC(=O)NC3CCCC3)cc2)cc1	·	-12	100	90
CC(C)NC(=O)Cn1ncn2c(cc3ccccc32)c1=O	103	0	101	95
CC(C)(Oc1ccc(Cl)cc1)C(=O)NCc1ccc2c(c1)OCO2	·	5	92	75
CCc1ccccc1NC(=O)Cn1nc2c3cc(F)ccc3n(Cc3cccc(C)c3)cc-2c1=O	103	·	100	89
Cn1c(=S)n(CN2CCC(C(N)=O)CC2)c2ccccc21	103	-26	109	66
CCO/C=C1/SC(=S)N(CCc2ccc(Cl)cc2)C1=O	135	-75	96	82
Cc1cc(C)cc(N2C(=O)CC(c3ccc4c(c3)OCO4)C3=C2CCCC3=O)c1 (centres undefined)	106	-7	96	76
O=C(NCc1cc(F)cc2c1OCOC2)C1CC1	106	2	97	99
O=C1S/C(=C2\C(=O)N(Cc3ccccc3)c3ccccc32)C(=O)N1Cc1ccccc1	102	-20	·	·
CCn1c(=O)n(CC(=O)N(C)Cc2ccccc2)c(=O)c2ccccc21	102	·	122	83
Cc1ccc(S(=O)(=O)c2nnn3c2nc(NC2CCCCCC2)c2sccc23)cc1C	105	·	125	76
CCc1ccccc1NC(=O)CSc1nnc(-c2nonc2NC(C)=O)n1C	97	-16	96	87
O=S1(=O)NC(=NCC(c2ccc(F)cc2)N2CCOCC2)c2ccccc21 (centres undefined)	·	-6	83	96
CN(C)C(=O)Oc1ccc[n+](C)c1	106	-10&-19&-39&-16	92	93
O=C(CSc1n[nH]c(=O)n1-c1ccccc1)c1ccc2c(c1)OCCO2	97	-26	105	94
Cc1cc2c(cc1S(=O)(=O)N1CCC(C(=O)N3CCN(c4ccc(Cl)cc4)CC3)CC1)OCC(=O)N2	108	18	·	·
O=C1NCCN1CCNS(=O)(=O)c1ccc(F)cc1	·	-2	97	91
CC(C)COc1ccccc1C1CC(=O)Nc2cc3c(cc21)OCO3 (centres undefined)	106	-7	102	93
COC(=O)C1(C(=O)OC)C(C)(C)C1(C(=O)OC)C(=O)OC	102	5	91	97
CCOC(=O)C1CCN(c2nc3c(S(=O)(=O)c4ccccc4)nnn3c3ccc(Cl)cc23)CC1	106	20	89	93
Cc1nc(CC(=O)Nc2cccc(C)c2C)cs1	98&101	1&-6	83	91
COC(=O)c1c(C)oc2ccc(O)c(CN3CCOCC3)c12	102	-28	·	·
CC1Cc2cc(S(=O)(=O)N3CCC(N4CCCCC4)CC3)ccc2N1C(=O)C1CC1 (centres undefined)	108	1	·	·
Cc1cc(C)c(NC(=O)CSc2nc3ccccc3c3nc(CCn4cncc4C)nn23)c(C)c1	97	·	100	88
CCOC(=O)c1[nH]c2ccc(F)cc2c1NC(=O)CN(CC)CC	102	-14	·	·
COc1ccc(C2(C(=O)N3CCOCC3)CCCC2)cc1	·	-4	105	90
O=C(Nc1nnc(CCS(=O)(=O)c2ccc(Br)cc2)s1)c1ccccc1	100	-17	·	·
O=C(Cc1ccccc1)NC1CCSc2ccccc21 (centres undefined)	·	-3	91	99
O=c1c2ccccc2nnn1COc1cccc(Cl)c1	·	-14	102	93
COc1cccc(-c2csc3nc[nH]c(=O)c23)c1	·	-4	115	70
N#Cc1cnn(-c2ccccc2)c1NC(=O)CSc1nc2ccccc2s1	95	20	89	69
Cc1ccc(Cl)cc1NC(=O)CC1SC(N)=NC1=O (centres undefined)	113	17	127	103
O=C(c1c[nH]c2ccc(S(=O)(=O)Nc3ccccc3F)cc2c1=O)N1CCCCCC1	98	-15	100	87
CN(c1ccc(C(=O)N2CCN(c3ccc(F)cc3)CC2)cc1)S(C)(=O)=O	98	0	100	95
CCN(CCCNC(=O)Cc1cn(C)c2ccccc12)c1cccc(C)c1	101	-25	·	·
Cc1ccc(/C=C/C(=O)OCc2cc(Cl)cc3c2OCOC3)o1	·	-26	77	66
COc1cc(C(=O)OCCCN=C2NS(=O)(=O)c3ccccc32)cc(OC)c1OC	107	8	·	·

24 successive records from above, quoted:
SMILES	GIV Gai3 FP	HCMV UL50-53 inh	Sa growth 42C	Sa growth 42C second temp
CN(C)C(=O)Oc1ccc[n+](C)c1	106	-10&-19&-39&-16	92	93
O=C(CSc1n[nH]c(=O)n1-c1ccccc1)c1ccc2c(c1)OCCO2	97	-26	105	94
Cc1cc2c(cc1S(=O)(=O)N1CCC(C(=O)N3CCN(c4ccc(Cl)cc4)CC3)CC1)OCC(=O)N2	108	18	·	·
O=C1NCCN1CCNS(=O)(=O)c1ccc(F)cc1	·	-2	97	91
CC(C)COc1ccccc1C1CC(=O)Nc2cc3c(cc21)OCO3 (centres undefined)	106	-7	102	93
COC(=O)C1(C(=O)OC)C(C)(C)C1(C(=O)OC)C(=O)OC	102	5	91	97
CCOC(=O)C1CCN(c2nc3c(S(=O)(=O)c4ccccc4)nnn3c3ccc(Cl)cc23)CC1	106	20	89	93
Cc1nc(CC(=O)Nc2cccc(C)c2C)cs1	98&101	1&-6	83	91
COC(=O)c1c(C)oc2ccc(O)c(CN3CCOCC3)c12	102	-28	·	·
CC1Cc2cc(S(=O)(=O)N3CCC(N4CCCCC4)CC3)ccc2N1C(=O)C1CC1 (centres undefined)	108	1	·	·
Cc1cc(C)c(NC(=O)CSc2nc3ccccc3c3nc(CCn4cncc4C)nn23)c(C)c1	97	·	100	88
CCOC(=O)c1[nH]c2ccc(F)cc2c1NC(=O)CN(CC)CC	102	-14	·	·
COc1ccc(C2(C(=O)N3CCOCC3)CCCC2)cc1	·	-4	105	90
O=C(Nc1nnc(CCS(=O)(=O)c2ccc(Br)cc2)s1)c1ccccc1	100	-17	·	·
O=C(Cc1ccccc1)NC1CCSc2ccccc21 (centres undefined)	·	-3	91	99
O=c1c2ccccc2nnn1COc1cccc(Cl)c1	·	-14	102	93
COc1cccc(-c2csc3nc[nH]c(=O)c23)c1	·	-4	115	70
N#Cc1cnn(-c2ccccc2)c1NC(=O)CSc1nc2ccccc2s1	95	20	89	69
Cc1ccc(Cl)cc1NC(=O)CC1SC(N)=NC1=O (centres undefined)	113	17	127	103
O=C(c1c[nH]c2ccc(S(=O)(=O)Nc3ccccc3F)cc2c1=O)N1CCCCCC1	98	-15	100	87
CN(c1ccc(C(=O)N2CCN(c3ccc(F)cc3)CC2)cc1)S(C)(=O)=O	98	0	100	95
CCN(CCCNC(=O)Cc1cn(C)c2ccccc12)c1cccc(C)c1	101	-25	·	·
Cc1ccc(/C=C/C(=O)OCc2cc(Cl)cc3c2OCOC3)o1	·	-26	77	66
COc1cc(C(=O)OCCCN=C2NS(=O)(=O)c3ccccc32)cc(OC)c1OC	107	8	·	·

Screening results deposited in PubChem BioAssay by ICCB-Longwood Screening Facility, Harvard Medical School.
